Compound activity deposited in PubChem BioAssay by several laboratories.
Ecoli rRNA inh: inhibitors of bacterial rRNA selective over humanized ribosomes. E. coli WT GFP vs humanized-ribosome RFP mutants, fluorescence, 24 h; active compounds read low; DMSO median 0, no signal -100. GFP signal change (wild-type ribosome), % (no concentration beside the values). 1.6% of 350,000 active. AID 720706;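 active = significant combined selectivity score with lowered wild-type GFP, culture density cut under 30%, mutant RFP and density less affected; inactive = any of these conditions unmet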; also: one replicate is shown; some compounds called inactive have numbers as strong as hits
Vif A3G: inhibitors of Vif binding to APOBEC3G peptide, primary screen, biochemical, TR-FRET, GST-Vif 1-94, biotin-A3G peptide, dose response retest (AID 1117319); inhibition, %; hits with a dose series show IC50 in µM; TR-FRET GST-Vif / biotin-A3G peptide binding; higher % means a stronger effect; test concentration not given here; strong numbers were not always called active; 0.57% of 260,000 active;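 active = above the screen mean plus three standard deviations and confirmed in dose response; inconclusive = results disagree or hit not tested in dose response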;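 also: Vif residues 1-94 fused to GST binding biotinylated APOBEC3G peptide 110-148; 0% = full assay without inhibitor and 100% = GST in place of GST-Vif; retest series ran down from 100 µM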
HNF4A DNA FP: change in binding of human HNF4 alpha to DNA | HNF4a-FITC DNA binding, fluorescence polarization, 1 h | activity change, % at 10 µM | 0.3% of 360,000 active | AID 1224865; in the data active = activity change above about 30%, passing the limit was not always enough;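 also: controls were the assay level and a saturating level of protein; the project sought stronger binding though the title names inhibitors; some compounds called inactive have numbers as strong as hits; positive values seem to mean higher polarization but the record does not say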
Target sequence (P41235 whole entry, looked up): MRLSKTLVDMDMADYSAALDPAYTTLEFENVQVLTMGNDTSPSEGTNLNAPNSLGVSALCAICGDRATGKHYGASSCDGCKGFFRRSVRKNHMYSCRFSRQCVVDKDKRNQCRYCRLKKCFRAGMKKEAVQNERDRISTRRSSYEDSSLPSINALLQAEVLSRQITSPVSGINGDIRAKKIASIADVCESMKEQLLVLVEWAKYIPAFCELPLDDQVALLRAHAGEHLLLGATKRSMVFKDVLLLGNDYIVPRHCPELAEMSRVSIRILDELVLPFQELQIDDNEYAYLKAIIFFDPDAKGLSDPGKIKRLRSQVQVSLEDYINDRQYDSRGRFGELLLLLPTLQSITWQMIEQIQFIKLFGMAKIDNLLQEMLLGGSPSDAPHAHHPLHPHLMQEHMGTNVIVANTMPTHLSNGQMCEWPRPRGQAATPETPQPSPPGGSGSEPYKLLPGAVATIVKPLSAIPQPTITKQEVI
Ecoli growth: E. coli growth inhibition | 0.21% of 330,000 active | OD600 absorbance (test concentration not listed) | AID 1053175 | Escherichia coli growth, OD600, 23 h; active compounds read low;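 active = OD600 absorbance below the run mean of sample wells minus 3.6 SD, in any replicate, cut at about 0.56 in these data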;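 also: stock transfer was 300 nL into about 60 µL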
FGF22 binding: FGF22 (human) thermal shift binding; Q9HCT0; recombinant FGF22 thermal shift, SYPRO orange fluorescence; percent of sucrose octasulfate shift, DMSO zero; calls only at 9.99 µM; 1.5% of 340,000 active;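 active = melting point raised past a set limit in the mean and every replicate; inconclusive = no clear call; three in four hits are not shown here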
MLL AF4-AF9 inh: inhibitors of human MLL-AF4/AF9 interaction; AlphaScreen, biotin-AF4 peptide binding to FLAG-AF9; AID 651704; inhibition, % at 10 µM; 0.47% of 350,000 active;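 active = every replicate reaching a set inhibition limit, whatever the replicate mean, cut at about 25% in these data; inconclusive = mean inhibition reaches that limit but some replicates miss it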;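 also: 0% = plate neutral control median and 100% = total signal loss; the record names both 10 and 1 µM as test concentration; the first replicate is given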
Target sequence (P42568 whole entry, looked up): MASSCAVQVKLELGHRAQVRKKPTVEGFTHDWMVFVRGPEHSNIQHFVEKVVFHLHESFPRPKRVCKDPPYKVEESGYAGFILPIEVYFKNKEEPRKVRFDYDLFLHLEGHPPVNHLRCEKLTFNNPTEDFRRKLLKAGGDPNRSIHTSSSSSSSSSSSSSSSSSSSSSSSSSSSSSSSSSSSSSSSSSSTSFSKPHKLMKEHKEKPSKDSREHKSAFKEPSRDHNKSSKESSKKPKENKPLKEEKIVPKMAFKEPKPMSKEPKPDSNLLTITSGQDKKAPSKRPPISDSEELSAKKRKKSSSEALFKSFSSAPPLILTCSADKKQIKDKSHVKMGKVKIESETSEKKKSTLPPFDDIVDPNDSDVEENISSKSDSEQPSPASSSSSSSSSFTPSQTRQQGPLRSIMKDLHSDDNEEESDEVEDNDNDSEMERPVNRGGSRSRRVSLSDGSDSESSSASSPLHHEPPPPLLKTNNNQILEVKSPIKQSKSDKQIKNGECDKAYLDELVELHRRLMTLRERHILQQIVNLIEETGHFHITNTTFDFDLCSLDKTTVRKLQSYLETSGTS
ALR H2O2 inh: blocks human ALR sulfhydryl oxidase activity | inhibition, % (no concentration beside the values) | 3.8% of 290,000 active | purified ALR, DTT oxidation, H2O2 HRP-luminol luminescence | AID 485317 | P55789;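 active = mean and each replicate at 75% or more; inconclusive = only one of the two met; inactive = neither met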;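 also: stock transfer was 7.5 nL into about 7.5 µL; 0% = neutral wells and 100% = wells with inactivated enzyme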
Ecoli rRNA inh OD600: second read-out of Ecoli rRNA inh, no call of its own (marks repeat the call); OD600 change, %; measured here: OD600 growth;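 optical density of the mix in the first replicate; 0 = DMSO median and -100 = no signal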
Ecoli rRNA inh RFP: recorded beside Ecoli rRNA inh, whose call it bears; RFP signal change, %; measured here: RFP humanized mutant strains;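 first replicate; 0 = DMSO median and -100 = no signal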
The depositor's hits bear a star; i = inactive; ? = inconclusive; · = not tested or not shown. Only part of the results is shown; count on the stated rates, not on these rows.

SMILES	Ecoli rRNA inh	Ecoli rRNA inh OD600	Ecoli rRNA inh RFP	Vif A3G	HNF4A DNA FP	Ecoli growth	FGF22 binding	MLL AF4-AF9 inh	ALR H2O2 inh
Cc1ccc(CN2CCN(CCC(C)C)C(CCO)C2)s1 (stereo not drawn)	7	3	-1.5	?	2.2	0.73	i	1.1	2
Cc1ccc(C(C(=O)NC2CCCC2)N(Cc2cccs2)C(=O)CNC(=O)c2cccs2)o1 (stereo not drawn)	·	·	·	20%	1.5	0.78	·	·	-5
C/C(=C\C(=O)c1ccc(Cl)s1)N(C)C	-18	-3	8.7	-3%	3.3	0.67	i	-1.7	-3
CCOc1ccc(NC(=O)CN2C(=O)C3CCCN3C2=O)cc1 (stereo not drawn)	4	10	-4.1	3%	1.2	0.77	i	-0.9	-9
CCCCN(C=O)c1c(CC)nc2ccc(C(=O)NCCCn3ccnc3)cn12	6	15	-3.3	·	-1.2	·	i	-0.2	·
NS(=O)(=O)c1ccc(NC(=O)C2C3C=CC(C3)C2C(=O)O)cc1 (stereo not drawn)	3	8	-1.7	-18%	4.4	0.66	i	-2.2	-9
Cc1nn(CCC#N)c(NC(=O)c2ccc(Cl)cc2)c1P(=O)(Nc1ccc([N+](=O)[O-])cc1)N1CCOCC1 (stereo not drawn)	·	·	·	5%	0.3	0.67	·	·	-6
Cc1cccc(N2CCN(C(=O)c3ccc4c(c3)CCN4S(C)(=O)=O)CC2)c1C	-31	-36	-0.8	1%	2.8	0.69	i	3.5	-4
O=C(NC(Cc1ccc(O)cc1)C(=O)N=Nc1c(O)[nH]c2ccccc12)c1ccccc1 (stereo not drawn)	-11	6	0.6	-2%	-4.5	·	i	-1.4	·
CCCCn1c(N)c(N(CC)C(=O)C2CCN(C(=O)c3ccccc3C)CC2)c(=O)[nH]c1=O	8	9	-0.7	·	-3.7	0.68	i	-1.9	·
Cc1nc2ccccc2n2c(O)c(CC(=O)O)cc12	·	·	·	30µM*	-80	0.72	·	·	41
C[C@@H]1CN([C@H](C)CO)C(=O)c2cc(-c3ccc(F)cc3)cnc2O[C@H]1CN(C)C(=O)CN(C)C	8	14	-0.6	·	·	·	i	1.0	·
CC(=O)Nc1ccc(NC(=O)c2c(C)c(-c3ccccc3)nc3ccccc23)cc1	-12	-4	-3.9	·	2.9	0.69	i	·	-22
CC(C)NC(=O)Nc1ccc2c(c1)C(=O)N(C)[C@@H]1CC[C@@H](CC(=O)NCC3CCCCC3)O[C@@H]1CO2	0	-2	-1.6	·	·	·	i	0.0	·
CC[C@@H]1CC2=C(C(=O)OC(C)(C)O2)[C@@H](c2ccc(Cl)cc2)O1	-9	-7	0.4	·	-0.9	·	i	-4.0	·
COc1cc(C(C(=O)NC2CCCCC2)N(C(=O)c2cnccn2)c2ccccc2)cc(OC)c1OC (stereo not drawn)	1	6	-1.3	·	-0.1	0.66	i	-0.5	·
O=[N+]([O-])c1cc2no[n+]([O-])c2cc1N1CCCCC1	1	3	2.4	7.7µM*	-4.9	·	i	11	·
C=C(C)CNc1cc(S(=O)(=O)N2CCOCC2)ccc1Oc1ccccc1	-3	-20	0.0	-1%	1.0	0.7	i	2.3	·
CCN(C[C@H]1[C@@H](c2ccccc2)[C@H](CO)N1CC1CC1)C(=O)c1ccccn1	0	0	1.0	·	·	·	i	-1.6	·
C[C@H](CO)N1C[C@H](C)[C@@H](CN(C)Cc2ccc(Oc3ccccc3)cc2)Oc2ccc(NC(=O)Nc3cccc4ccccc34)cc2C1=O	4	1	-0.1	·	·	·	i	0.6	·
CCCC(=O)c1ccc(N2CCN(C(=O)OCC)CC2)c(F)c1	-14	-13	-3.3	1%	2.0	0.7	i	-1.7	-11
Cc1ccc(NC(=O)COC(=O)CCC(=O)c2ccc(Cl)cc2)cc1S(=O)(=O)N(C)C	·	·	·	·	-4.7	0.68	·	·	-29
CO[C@@H]1CN(C)C(=O)c2cc(NC(=O)c3cccc(F)c3)ccc2OC[C@H](C)N(C)C[C@@H]1C	0	13	-0.4	·	·	·	i	-1.5	·
COc1cccc(S(=O)(=O)N2CCCCN3[C@H](CO)[C@@H](c4ccc(-c5cccnc5)cc4)[C@H]3C2)c1	-3	-11	9.8	·	·	·	i	-8.0	·
CCOc1ccc(CNC(=O)CCC(=O)N2Cc3ccccc3Oc3ncccc32)cc1	-4	-12	2.9	·	0.2	0.71	i	2.6	-16
COc1ccc(CCNS(=O)(=O)c2ccc3c(c2)oc(=O)n3C)cc1OC	-5	3	-1.2	28%	-4.0	0.78	i	-0.1	-26
C[C@@H]1CN([C@@H](C)CO)C(=O)Cc2cc(NC(=O)Nc3ccc(C(F)(F)F)cc3)ccc2O[C@@H]1CN(C)Cc1ccc(C(=O)O)cc1	-4	-8	-0.5	·	·	·	i	0.3	·
COc1ccccc1C1CC(c2ccco2)=NN1S(C)(=O)=O (stereo not drawn)	10	2	2.9	4%	20	0.72	i	-1.0	18
Cc1ccc2ccccc2c1C(O)c1ncc(-c2ccccc2)[nH]1 (stereo not drawn)	9	9	7.7	·	0.8	·	i	1.0	·
COc1ccc(-c2noc(CSc3nc(N)c(-c4ccccc4)c(=O)[nH]3)n2)cc1OC	·	·	·	-1%	-6.6	0.68	·	·	100*
CCC(=O)Nc1ccc(/C(C)=N/NC(=O)c2c(Br)c(C)nn2C)cc1	3	9	-3.8	-4%	-0.9	·	i	3.2	-6
CC(NC(=O)OC(C)(C)C)C(=O)NC(CCC(=O)OCc1ccccc1)C(N)=O (stereo not drawn)	18	11	-2.2	-4%	-1.6	0.63	i	-1.4	-17
CN(C)C(=O)C[C@@H]1C=C[C@H](NC(=O)NC2CCCC2)[C@@H](CO)O1	1	-12	3.9	·	·	·	i	-1.9	·
COc1ccc(C(=O)Nc2ccccc2N2CCCC2)cc1S(=O)(=O)N1CCOCC1	0	2	4.3	0%	1.2	0.69	i	0.3	98*
C[C@@H]1CN([C@@H](C)CO)C(=O)c2cccc(NS(=O)(=O)c3cn(C)cn3)c2O[C@H]1CN(C)C(=O)Nc1ccc(C(F)(F)F)cc1	0	6	1.6	·	·	·	i	-4.1	·
O=C(COc1cc(Cl)c(Cl)cc1Cl)Nn1cnnc1	·	·	·	2%	-2.9	0.7	·	·	1
C[C@H](NC(=O)C[C@@H]1CC[C@@H]2[C@H](COC[C@H](O)CN2C(=O)Nc2cc(Cl)cc(Cl)c2)O1)c1ccccc1	-33	-34	17	·	·	·	i	-1.3	·
Cc1cc(C)cc(N(C(=O)CNC(=O)c2ccco2)C(C(=O)NC2CCCC2)c2ccncc2)c1 (stereo not drawn)	13	11	-1.4	0%	2.3	0.66	i	1.5	-4
CCCCNC(=O)C1(C)CCC(=O)N1CCCn1ccnc1 (stereo not drawn)	6	-2	-0.9	·	-0.4	·	i	0.0	·
CC1(C)CCC(=O)N(c2ccccc2)C1=O	8	10	2.5	1%	0.0	0.66	i	-4.2	32
Cc1noc(C)c1NC(=O)N(C)C[C@@H]1Oc2ccc(NC(=O)Nc3ccc(F)cc3)cc2CC(=O)N([C@H](C)CO)C[C@H]1C	2	3	-1.5	·	·	·	i	-1.7	·
C[C@@H]1CN([C@H](C)CO)C(=O)c2cc(Br)cnc2O[C@H]1CN(C)CC1CCCC1	6	3	-1.4	·	·	·	i	-3.4	·
O=C(Cc1ccncc1)Nc1ccc2c(c1)[C@@H]1C[C@H](CC(=O)NC3CCCC3)O[C@H](CO)[C@@H]1O2	-6	-3	0.5	·	·	·	i	1.1	·
CCN(CC)C(=O)/C(=C\c1ccc(Br)cc1)NC(=O)c1ccccc1OC	·	·	·	1%	2.1	0.66	·	·	-8
COc1ccc(NC(=O)Nc2cccc([N+](=O)[O-])c2)cc1Cl	-43	-49	-22	·	0.1	0.52*	i	-0.6	67
CC(=O)C1=C(C)N=c2s/c(=C/c3ccc4c(c3)OCO4)c(=O)n2C1c1ccc(N(C)C)cc1 (stereo not drawn)	16	7	2.9	·	78*	·	i	4.7	·
CCOC(=O)c1cnc(SCC(=O)c2ccccc2)nc1N	·	·	·	?	2.8	0.7	·	·	-6
O=C(Nc1cccc(C(F)(F)F)c1)c1cnccn1	5	5	1.6	4%	2.8	0.69	i	-2.0	0
COc1cc(CCCN2C(N)=NC[C@@H]2Cc2ccc(O)cc2)cc(OC)c1OC	1	2	-1.3	4%	-0.2	·	i	2.6	·
Cc1ccc(C)c(OC(C)C(=O)Nc2ccc(S(=O)(=O)Nc3nccs3)cc2)c1 (stereo not drawn)	-4	-26	4.7	3%	-0.9	0.69	i	0.8	1
O=C(c1ccco1)N1CCN(C(=O)N2CCOCC2)CC1	·	·	·	21%	1.0	0.7	·	·	-1
CN(C)c1ccc(C(=S)N2CCN(S(=O)(=O)c3ccccc3)CC2)cc1	-7	1	1.2	·	4.6	0.73	i	?	27
O=C(c1ccccn1)N1CCN(S(=O)(=O)c2cccc(Br)c2)CC1	12	8	2.0	-17%	3.3	0.64	i	0.2	0
C[C@H](CO)N1C[C@H](C)[C@@H](CN(C)Cc2ccc(C(F)(F)F)cc2)Oc2ccc(NC(=O)CCCCCC(=O)Nc3ccccc3N)cc2C1=O	-2	-38	-2.8	·	·	·	i	0.7	·
Cc1ccc(C2CC(c3ccccc3)n3ncnc3N2)cc1 (stereo not drawn)	-5	-8	0.8	7%	-2.4	0.68	i	-2.4	-1
COc1ccc2c3c(n(C)c2c1)[C@@H](CO)N(Cc1ccccc1F)CC31CN(C(=O)C2CC2)C1	-3	-1	-0.8	·	·	·	i	2.9	·
Oc1[nH]c2ccccc2c1N=Nc1ccc(F)cc1	-45	-56	8.4	-3%	-94	0.71	i	-12	34
CNC[C@H]1Oc2c(NS(=O)(=O)c3ccc(F)cc3)cccc2C(=O)N([C@@H](C)CO)C[C@@H]1C	-1	3	0.4	·	·	·	i	7.5	·
CCOc1ccc(C(=O)OCC(=O)NCc2ccco2)cc1OCC	·	·	·	?	-1.1	0.74	·	·	2
COC(=O)C[C@@H]1C=C[C@@H](NC(=O)C2CCC2)[C@@H](CO)O1	9	-1	-1.0	·	-3.1	·	i	-1.0	·
CCN(CC(=O)Nc1ccc(C(C)=O)cc1)CC(=O)Nc1cccc(OC)c1	-18	2	4.8	-9%	2.2	0.7	i	-0.3	-3
CC(=O)NC(=S)NNC(=O)c1ccc(Br)cc1	-54	-68	-12	-9%	-1.0	·	i	-6.1	10
CNC(=O)C[C@H]1CC[C@@H]2[C@H](COC[C@@H](O)CN2C(=O)c2ccccn2)O1	0	-9	-1.8	·	·	·	i	-2.0	·

Filtered by structure: the compounds so far containing a nitro group on carbon
SMILES	Ecoli rRNA inh	Ecoli rRNA inh OD600	Ecoli rRNA inh RFP	Vif A3G	HNF4A DNA FP	Ecoli growth	FGF22 binding	MLL AF4-AF9 inh	ALR H2O2 inh
Cc1nn(CCC#N)c(NC(=O)c2ccc(Cl)cc2)c1P(=O)(Nc1ccc([N+](=O)[O-])cc1)N1CCOCC1 (stereo not drawn)	·	·	·	5%	0.3	0.67	·	·	-6
O=[N+]([O-])c1cc2no[n+]([O-])c2cc1N1CCCCC1	1	3	2.4	7.7µM*	-4.9	·	i	11	·
COc1ccc(NC(=O)Nc2cccc([N+](=O)[O-])c2)cc1Cl	-43	-49	-22	·	0.1	0.52*	i	-0.6	67
